# H5N1 antiviral: antiviral screen in MDCK cells, H5N1 avian flu; inhibition, % at 50 µM; hit rate 0.07% among 96,000; cytopathic effect, luminescence, 72 h; active compounds read high; no value below 0 was filed and about half of the inactive calls have no number; reference of the scale not given here; in the data active = inhibition above about 25%
# * hit, by the source's call; i = inactive. The list is partial (hit frequency here may not be typical).
# Sample of the layout:
molecule	H5N1 antiviral
Cc1csc2nc3ccccc3c(=O)n12	i
CCOC(=O)c1ccccc1NC(=O)CSc1cccc[n+]1[O-]	1.2
CN=c1scc(C)n1/N=C/c1ccc(O)cc1	i
CC(C)C(c1nnnn1Cc1ccco1)N1CCN(C2CCCC2)CC1 (stereo unspecified)	i
CCCCN(CCCC)C(=O)c1ccccc1NC(=O)CN1C(=O)c2ccccc2C1=O	i

# Main list, from the first entry:
molecule	H5N1 antiviral
Cc1csc2nc3ccccc3c(=O)n12	i
CCOC(=O)c1ccccc1NC(=O)CSc1cccc[n+]1[O-]	1.2
CN=c1scc(C)n1/N=C/c1ccc(O)cc1	i
CC(C)C(c1nnnn1Cc1ccco1)N1CCN(C2CCCC2)CC1 (stereo unspecified)	i
CCCCN(CCCC)C(=O)c1ccccc1NC(=O)CN1C(=O)c2ccccc2C1=O	i
CCC(CC)NC(=O)c1n[nH]c(=O)c2ccccc12	i
Cc1cc(Cl)ccc1OCCCC(=O)NC1CCN(C)CC1	i
O=S1(=O)NC(=NCc2ccccc2)c2ccccc21	1.4
C=CCn1c(CSc2nc3ccccc3s2)nnc1SCC(=O)NCc1ccccc1	i
CCCC(C)NC(=O)C1CCN(S(=O)(=O)c2ccccc2)CC1 (stereo unspecified)	0.4
COc1ccc(CNc2ccc3cn[nH]c3c2)c(OC)c1OC	i
O=C(CN1CCN(Cc2ccccc2)CC1)c1c[nH]c2ccccc12	i
COc1ccccc1NC(=O)COc1ccc(C(=O)OCC(=O)N2CCCC2=O)cc1OC	0.5
O=c1c2ccccc2nc(-c2ccc(Cl)cc2Cl)n1-c1ccncc1	i
O=C1c2ccccc2C(Nc2ccc(F)c(Cl)c2)N1c1ccccn1 (stereo unspecified)	i
CC(C(=O)NCC1CCCO1)N(C(=O)c1snc(C(N)=O)c1N)c1cccc(F)c1 (stereo unspecified)	1.5
COc1ccc(/C=N/n2cc(-c3ccccc3)nc2N)cc1	i
CC1Cc2nc(SCC(=O)NCc3ccco3)n(-c3ccccc3)c(=O)c2S1 (stereo unspecified)	0.4
CC(NC(=O)N(Cc1ccccc1)Cc1ccc2c(c1)OCO2)(C(F)(F)F)C(F)(F)F	4.5
COc1ccc(-n2c(SCC(=O)Nc3cc(C)on3)nc3c(c2=O)SCC3)cc1	0.7
CCc1nnc(NS(=O)(=O)c2ccc(N=Cc3c(C)[nH]n(-c4ccc(C)cc4)c3=O)cc2)s1	i
O=C(Nc1ccccc1C(=O)OCc1nnc(-c2ccccc2)o1)c1ccco1	i
CCOCCCNc1ccc(-c2ccccc2)nn1	i
CCOC(=O)c1ccc(-n2c(C)nc3c(cnn3-c3ccccc3Cl)c2=O)cc1	0.7
Cc1ccccc1NC(=O)C1CCC(C)(C(=O)O)C1(C)C (stereo unspecified)	0.2
CC(=O)Nc1nonc1NC(=O)CSC1=NCCS1	i
CN1CCN(c2nc3c(c(=O)[nH]c(=O)n3C)n2CCOc2ccccc2)CC1	0.8
CCOC(=O)N1CCN(C(=O)C2CCCN(Cc3nc(-c4ccc(Cl)cc4)oc3C)C2)CC1 (stereo unspecified)	i
CC(C)(C)c1nn(-c2ccccc2)c2[nH]c(=O)c(CNCc3ccc4c(c3)OCO4)cc12	i
COc1cccc(N2CCN(C3OC(=O)c4ccccc43)CC2)c1 (stereo unspecified)	0.4
CCOC(=O)c1ccc2[nH]c3c(c2c1)CCCC3C(=O)OCC (stereo unspecified)	1.5
COCCn1c(-c2ccc(OC)c(OC)c2)nc2ccccc21	2.7
CC(C)c1nnc(NC(=O)c2cnccn2)s1	0.3
Cc1ccc(S(=O)(=O)c2c(N)n(NC(=O)c3ccco3)c3nc4ccccc4nc23)cc1	i
CCOc1ccc(S(=O)(=O)Nc2nc3ccccc3nc2N2CCN(C)CC2)cc1	2.4
CC(=O)Nc1ccc(C(=O)CSc2ncn(-c3ccccc3)n2)cc1	i
O=C(NN=C1CCCCCCC1)c1ccccn1	i
Cc1nc2nc(C)c(CCC(=O)NCCCN3CCN(c4cccc(Cl)c4)CC3)c(C)n2n1	2.4
COc1ccc2c(c1OC)C(=O)OC2c1c(O)nc(SC)n(-c2ccccc2)c1=O (stereo unspecified)	0.9
Clc1ccc(-c2noc(CSc3nnc(-c4ccncc4)n3-c3ccccc3)n2)cc1	i
O=c1c2cc(N3CCOCC3)ccc2[nH]c(=S)n1Cc1ccccn1	i
CCOC(=O)C(NC(=O)Nc1ccccc1)(OCC)C(F)(F)F (stereo unspecified)	1.3
COc1ccc(-c2c[n+]3c4n2CCCCC4=C(c2ccccc2)C3)cc1	i
COC(=O)CC1Nc2ccccc2SC1=O (stereo unspecified)	0.5
Nc1ncc(-c2ccccc2)n1CC1CCCO1 (stereo unspecified)	i
CCN(CC)S(=O)(=O)c1ccc(C(=O)OC2CCCCC2CN(C)C)cc1 (stereo unspecified)	i
CCCCCC(=O)N/N=C(\C)c1ccc(Cl)cc1	0.4
O=C(O)c1nsc(Cl)c1Cl	i
Cc1oc(-c2ccccc2)nc1CC(=O)O	i
COc1ccc(/C=C2/SC(=S)N(CCC(=O)O)C2=O)cc1	0.1

# The list continues.
molecule	H5N1 antiviral
CCOc1ccc(NC(=O)CCn2cccc2)cc1	i
Cc1ccc(CC2CC(=O)N(c3ccc4c(c3)OCCO4)C2=O)cc1 (stereo unspecified)	0.2
COC(=O)CSc1nc(C)cc(Oc2ccccc2)n1	i
Cc1ccccc1C(=O)NC(=S)NCC(=O)c1ccccc1	i
Clc1cccc(/C=N/Nc2nnc(Cl)c3ccccc23)c1	i
Cc1oc(-c2cccc(Cl)c2)nc1CN1CCC(C(=O)NCCCN2CCCC2=O)CC1	i
O=C(Nc1cccc(F)c1)C1CCN(c2nnnn2-c2ccccc2)CC1	i
N/C(COc1cccc(C(F)(F)F)c1)=N\NC(=O)c1cccnc1Oc1ccccc1	i
C=CCn1c(SCC(=O)Nc2cccc(C)c2)nnc1-c1cnccn1	i
CCOC(=O)COc1ccc2c(c1)C(=O)CC1(CCN(C(C)=O)CC1)O2	1.4
COc1ccc(/C=N/n2c(C)nnc2C)c(OC)c1	i
CC(=O)N1CCc2cc(S(=O)(=O)NCCC(=O)N3CCN(c4ccccn4)CC3)ccc21	0.5
COc1ccc(NS(=O)(=O)c2ccc(S(=O)(=O)N3CCCC3)cc2)cc1Cl	1.7
CCCS(=O)(=O)N1CCC(C(=O)N2CCc3ccccc3C2)CC1	0.5
COc1ccc2sc3ccccc3c(=O)c2c1	i
O=C(c1ccccc1)c1ccccc1C(=O)N1CCCC1	0.5
Cc1onc(-c2ccccc2Cl)c1C(=O)NCCN1Cc2ccccc2C1=O	i
Cc1ccc(C(=O)NCCCC(=O)O)o1	i
O=C(CNC(=O)c1cccs1)OCC(=O)c1ccc2ccccc2c1	i
COc1cc(NC(=O)c2ccco2)c(OC)cc1NC(=O)Nc1ccc(Cl)cc1	i
COC(=O)c1ccc(C(=O)OC)c(NS(=O)(=O)c2ccc(NC(C)=O)cc2)c1	0.1
c1ccc(-n2nnnc2NC2CCCCCC2)cc1	0.1
Cc1nn(C)c(C(=O)Nc2ccc(Cn3cccn3)cc2)c1[N+](=O)[O-]	i
CS(=O)(=O)c1nc2ccccc2n1Cc1ccccc1	i
CN1CCCc2cc(C#N)c(=O)[nH]c21	i
COc1ccccc1C1CC(c2c(-c3ccccc3)c3cc(Cl)ccc3[nH]c2=O)=NN1S(C)(=O)=O (stereo unspecified)	17
COC(=O)c1cc2occc2n1CC(=O)Nc1ccc(OC)c(OC)c1	3.6
CCN(CCNc1ccc(Cl)cc1[N+](=O)[O-])C(=O)c1cc([N+](=O)[O-])c(N(C)C)cc1OC	1.8
O=C(OCCCCN1C(=O)c2ccccc2C1=O)c1ccc(Br)o1	0.1
CC1=C(C(=O)Nc2ccc(C)cc2C)C(c2ccc(C)o2)NC(=O)N1 (stereo unspecified)	0.6
CC(C)CN(CCNC(=O)CC1Oc2ccccc2NC1=O)CC(C)C (stereo unspecified)	0.3
Cc1ccccc1CN1CCN(CC(=O)NCc2ccccc2)C1=O	0.5
Cc1ccc(-c2nn[nH]n2)o1	i
Cc1ccc(-c2nnc(N(C)C(=O)c3cccnc3)s2)cn1	0.4
O=C(C1CC1)N1CCN(c2nc3ccccc3s2)CC1	0.3
COCCCNS(=O)(=O)c1ccc2c3c(cccc13)C(=O)S2	2.8
Cc1cc(NC(=O)C(C)Oc2ccc(Cl)cc2Cl)n(-c2ccccc2)n1 (stereo unspecified)	0.5
CCCOc1ccc(N2CC(C(=O)Nc3ccccc3OC)CC2=O)cc1 (stereo unspecified)	i
CC1=C(C(=O)N2CCOCC2)C(c2cc(C)cs2)NC(=O)N1 (stereo unspecified)	0.3
O=C(N(c1ccccc1)c1ccccc1)n1ccnc1	i

# Pulled by compound from the list above (two):
molecule	H5N1 antiviral
Cc1ccc(-c2nn[nH]n2)o1	i
Cc1cc(NC(=O)C(C)Oc2ccc(Cl)cc2Cl)n(-c2ccccc2)n1 (stereo unspecified)	0.5

# (more compounds)
molecule	H5N1 antiviral
CCOC(=O)C1=C(c2ccccc2)N=C2SCC(=O)N2C1c1ccc(OCC)c(OCC)c1 (stereo unspecified)	i
CC(C)OC(=O)[C@H]1[C@H](c2ccc(Cl)cc2)[C@@](C#N)(C(N)=O)[C@@H]2C=CC(C(N)=O)=CN21	0.5
COc1ccc(C2Nc3ccccc3C(=O)N2O)cc1OC (stereo unspecified)	3.1
COc1ccc(NC(=O)CSc2nc(NS(=O)(=O)c3ccc(C)cc3)cc(=O)[nH]2)cc1	i
O=C(Nc1cccc(F)c1)c1cccnc1N1CCOCC1	1.6
COc1cc(NC(=O)c2cccs2)cc(OC)c1	4.5
O=S(=O)(c1cnc[nH]1)N1CCN(c2ccc(Cl)cc2)CC1	0.3
CCC(C)(C)C1CCC2(CC1)NC(=O)N(CC(=O)Nc1nc(-c3ccc(C)cc3)cs1)C2=O (stereo unspecified)	i
CC(C)OCC(O)CS(=O)Cc1ccccc1 (stereo unspecified)	i
COC(=O)CSc1nnc(-c2ccco2)o1	i

# In a second layout: entries from further up.
SMILES: COc1ccc(NC(=O)CSc2nc(NS(=O)(=O)c3ccc(C)cc3)cc(=O)[nH]2)cc1
  H5N1 antiviral: i
SMILES: O=C(Nc1cccc(F)c1)c1cccnc1N1CCOCC1
  H5N1 antiviral: 1.6
SMILES: COc1cc(NC(=O)c2cccs2)cc(OC)c1
  H5N1 antiviral: 4.5

# Going on with the list.
molecule	H5N1 antiviral
COc1ccc(C)cc1S(=O)(=O)Nc1ccccc1	2.1
Cc1onc(-c2c(Cl)cccc2Cl)c1C(=O)N1CCCc2ccccc21	1.2
CCOc1ccc2[nH]c3c(N4CCN(c5ccccn5)CC4)ncnc3c2c1	i
CCOC(=O)c1ccc(NC(=O)CSc2nnc(CNc3ccc(OC)cc3)n2C)cc1	i
CCc1cc(C(=O)NCCN(C)C)cs1	i
CCCS(=O)(=O)N1CCCC(C(=O)NCC2CCCO2)C1 (stereo unspecified)	0.3
CN(CC(=O)N1CCc2[nH]c3ccc(F)cc3c2C1)CC1OCCO1	1.2
Cc1sc2ncnc(SCC(=O)c3ccc(Cl)s3)c2c1C	0.2
CCCCCCC(=O)Nc1c(O)c2ccccc2[nH]c1=O	0.5
Cc1ccc(C2(C(F)(F)F)NC(=O)N3CCN=C3S2)cc1 (stereo unspecified)	0.8
CCOC(=O)CNc1nnc(SCC(=O)OCC)[nH]c1=O	i
C=CCn1nnnc1SCC(=O)Nc1cccc(OC)c1	0.1
COC(=O)c1c(C(=O)OC)c(-c2ccc(Cl)c(Cl)c2)n2c1CCC2	i
CN(C)c1nc(N)nc(N(c2ccccc2)c2ccccc2)n1	1.4
Cc1ccc(NC(=O)NCCN2C(=O)C3C4C=CC(C4)C3C2=O)cc1 (stereo unspecified)	0.5
Cc1ccccc1N1CC(c2nc3ccccc3[nH]2)CC1=O (stereo unspecified)	0.3
O=C(O)C1CCN(Cc2cnn(-c3ccccc3)c2-n2cccc2)CC1	0.5
CCN(Cc1ccccc1)C(c1cc2cc(C)ccc2[nH]c1=O)c1nnnn1CCOC (stereo unspecified)	i
CCOc1cc(NC(=S)Nc2ccccc2)c(OCC)cc1NC(=O)c1ccccc1	i
Cn1cc(S(=O)(=O)Nc2ccc(Br)cc2F)c(=O)n(C)c1=O	i
COc1ccc(OC)c(N(CC(=O)N2CCN(c3cc(Cl)ccc3C)CC2)S(C)(=O)=O)c1	1.1
O=c1cc(NCc2ccc3c(c2)OCO3)[nH]c(=O)n1-c1ccc(Cl)cc1	i
O=C1CC(c2ccco2)Cc2nc(Nc3ccc(F)cc3)ncc21 (stereo unspecified)	i
COc1cc2cc(CN(C(=O)NC3CCCCC3)C3CCCC3)c(=O)[nH]c2cc1OC	i
CCOC(=O)CSc1nc2cc(C(=O)NCc3ccco3)ccc2c(=O)n1-c1ccc(F)cc1	1.9
CCOC(=O)Cn1c2[n+](c3ccccc31)CC(O)CS2 (stereo unspecified)	i
O=C(C/C=N\OCc1c(Cl)cccc1Cl)Oc1ccc(Cl)cc1Cl	0.3
CCCC(CCC)C(=O)Nc1cccc(C(=O)O)c1	i
Fc1ccccc1N1CCN(CC2CC3C=CC2C3)CC1 (stereo unspecified)	i
O=C(NCCCN1CCCCC1)C1(S(=O)(=O)c2ccc(Cl)cc2)CC1	0.5
COCCNC(=O)C1CC(=O)N(C2CCCCC2)C1 (stereo unspecified)	i
Cc1cc(C)n(-c2ccc(C(=O)Nc3nnc(C)s3)cc2)n1	0.1
CC1CCN(C(c2ccc(N(C)C)cc2)c2nnnn2Cc2ccccc2)CC1 (stereo unspecified)	1.0
Cc1cc(-c2ccccc2)nc(=O)[nH]1	i

# Screening data (PubChem)
